# MLL AF4-AF9 inh = inhibitors of AF4 peptide binding to AF9, primary screen, biochemical, AlphaScreen, biotin-AF4 peptide, FLAG-AF9, single point. AID 651704, 2012. inhibition, % at 10 µM. 350,000 tested, 0.47% active;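 active means every replicate reaching a set inhibition limit, whatever the replicate mean, cut at about 25% in these data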;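 further: 0% = plate neutral control median and 100% = total signal loss; the record names both 10 and 1 µM as test concentration; the first replicate is given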
# Target sequence (P42568 whole entry, looked up): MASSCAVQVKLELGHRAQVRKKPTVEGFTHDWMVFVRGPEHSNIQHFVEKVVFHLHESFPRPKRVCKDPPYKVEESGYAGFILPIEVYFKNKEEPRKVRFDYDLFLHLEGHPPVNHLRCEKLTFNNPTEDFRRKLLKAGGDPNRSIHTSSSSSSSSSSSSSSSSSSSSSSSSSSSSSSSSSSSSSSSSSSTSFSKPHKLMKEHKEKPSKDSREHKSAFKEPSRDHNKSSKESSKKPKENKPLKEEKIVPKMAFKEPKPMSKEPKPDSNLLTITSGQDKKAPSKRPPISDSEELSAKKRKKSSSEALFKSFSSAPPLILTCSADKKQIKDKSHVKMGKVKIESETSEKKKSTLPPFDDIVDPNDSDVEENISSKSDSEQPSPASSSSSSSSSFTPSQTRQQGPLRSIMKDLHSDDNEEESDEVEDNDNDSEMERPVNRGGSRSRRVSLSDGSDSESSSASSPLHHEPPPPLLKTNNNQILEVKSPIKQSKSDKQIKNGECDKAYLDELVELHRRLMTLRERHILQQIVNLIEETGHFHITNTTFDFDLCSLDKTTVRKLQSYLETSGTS
# Ecoli rRNA inh = reduced GFP signal of wild-type E. coli, primary screen, bacterial rRNA inhibitor project, GFP/RFP fluorescence, OD600, single point; E. coli WT GFP vs humanized-ribosome RFP mutants, 24 h; hits give low values; DMSO median 0, no signal -100; GFP signal change (wild-type ribosome), % (test concentration not listed); 350,000 tested, 1.6% active; AID 720706, 2013;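 active means significant combined selectivity score with lowered wild-type GFP, culture density cut under 30%, mutant RFP and density less affected; inactive means any of these conditions unmet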; further: one replicate is shown; some compounds called inactive have numbers as strong as hits
# Ecoli rRNA inh OD600 = recorded beside Ecoli rRNA inh, whose call it bears; OD600 change, %; measured here: OD600 growth;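 optical density of the mix in the first replicate; 0 = DMSO median and -100 = no signal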
# Ecoli rRNA inh RFP = also measured in Ecoli rRNA inh; calls as there; RFP signal change, %; measured here: RFP humanized mutant strains;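 first replicate; 0 = DMSO median and -100 = no signal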
# The depositor's hits bear a star; & = joins results of further samples.
MLL AF4-AF9 inh	Ecoli rRNA inh	Ecoli rRNA inh OD600	Ecoli rRNA inh RFP	Molecule
0.5	-1	-9	4.6	O=C(c1ccccn1)N1CC(=O)N2[C@H](C1)[C@H](c1ccc(C#Cc3ccccc3)cc1)[C@@H]2CO
3.0	2	-11	3.5	O=C1CN(S(=O)(=O)Cc2ccccc2)C[C@@H]2[C@H](c3ccc(C#CCC4CCCC4)cc3)[C@@H](CO)N12
-4.6	3	-3	9.5	Cc1cccc(-c2ccc([C@H]3[C@H](CO)N4C(=O)CN(C(=O)c5ccccc5)C[C@@H]34)cc2)c1
-4.4	1	-2	0.9	O=C1CN(S(=O)(=O)Cc2ccccc2)C[C@H]2[C@@H](c3ccc(C#Cc4ccccc4)cc3)[C@@H](CO)N12
1.2	2	-3	1.0	Cc1ccc(S(=O)(=O)Nc2ccc3c(c2)C(=O)N([C@@H](C)CO)C[C@@H](C)[C@H](CN(C)Cc2ccc(Cl)c(Cl)c2)OCCCC[C@@H](C)O3)cc1
-1.3	3	4	1.2	C[C@@H]1CN([C@H](C)CO)C(=O)c2cc(NS(=O)(=O)c3ccccc3)ccc2O[C@@H]1CN(C)C
0.5	-51	-71	-0.8	CC(C)CC#Cc1ccc([C@@H]2[C@H](CO)N3C(=O)CN(C(=O)Cc4ccccc4)C[C@@H]23)cc1
-3.7	5	23	-4.2	Cc1ccccc1S(=O)(=O)N1CC(=O)N2[C@H](CO)[C@H](c3ccc(C#Cc4ccccc4)cc3)[C@H]2C1
1.3	2	-4	0.4	CCCC#Cc1ccc([C@H]2[C@@H](CO)N3C(=O)CN(C(=O)NC4CCCC4)C[C@@H]23)cc1
-2.8	3	13	-2.5	COCC#Cc1ccc([C@@H]2[C@@H](CO)N3C(=O)CN(C(=O)Nc4ccccc4F)C[C@H]23)cc1
-0.6	-5	-12	2.8	O=C([C@H]1N[C@H]2c3ccc(C4=CCCCC4)c(=O)n3C[C@H]2[C@@H]1CO)N1CCc2ccccc2C1
-2.2	3	5	-2.0	CN(C)CC(=O)N1CC2(C1)[C@@H](c1ccccc1)[C@@H](CO)N2C(=O)C1CCCC1
0.2	-4	-1	-0.8	O=C(NC1CCCCC1)[C@@H]1[C@@H](CO)[C@@H]2Cn3c(cccc3=O)[C@@H]2N1CCc1ccccc1
4.9	5	14	1.9	O=C(Cc1ccncc1)N1CC(=O)N2[C@H](C1)[C@H](c1ccc(C3=CCCC3)cc1)[C@@H]2CO
-2.2	-55	-75	-12	Cc1ccc(-c2ccc(C3[C@@H]4CN(S(=O)(=O)c5ccc(C)cc5)C[C@H]3N4)cc2)cc1 (some centres undefined)
-6.2&-7.1	-59&-59	-79&-77	-16&-14	N#Cc1cccc(-c2ccc(C3[C@H]4CNC[C@@H]3N4Cc3cc(-c4ccccc4)on3)cc2)c1 (some centres undefined)
-0.6	-2	0	4.5	CC(C)C#Cc1ccc([C@H]2[C@@H](CO)N3C(=O)CN(C(=O)Cc4ccccc4)C[C@H]23)cc1
-0.5	-1	-4	0.1	C[C@H](CO)N1C[C@H](C)[C@H](CN(C)S(=O)(=O)c2ccc(Cl)cc2)OCCCC[C@H](C)Oc2ccc(NC(=O)C3CCCCC3)cc2C1=O
3.7	0	-1	19	COc1ccc(NC(=O)N2CC(=O)N3[C@H](CO)[C@@H](c4ccc(C5=CCCC5)cc4)[C@H]3C2)cc1
0.6	8	-18	4.5	O=C(c1ccccc1F)N1CC(=O)N2[C@H](C1)[C@@H](c1ccc(-c3ccccc3)cc1)[C@@H]2CO
-1.7	-1	-9	-2.4	O=C(C[C@H]1CC[C@@H](NS(=O)(=O)c2ccccc2)[C@H](CO)O1)N1CCN(c2ccccc2)CC1
2.1	1	6	-3.2	CO[C@H]1CN(C)C(=O)c2cc(NC(=O)c3cnccn3)ccc2OC[C@@H](C)N(C(=O)C2CC2)C[C@@H]1C
-3.1	-1	-7	0.7	Cc1ccc(S(=O)(=O)Nc2ccc3c(c2)C(=O)N([C@H](C)CO)C[C@H](C)[C@@H](CN(C)C(=O)CCC(F)(F)F)OCCCC[C@H](C)O3)cc1
-2.1	3	8	0.0	CCC(=O)N1[C@@H]2c3cccc(=O)n3C[C@@H]2[C@@H](CO)[C@@H]1C(=O)NC1CCCCC1
10	-16	-21	26	COc1cccc(-c2ccc3c(c2)[C@H]2[C@H](CCN2C(=O)C2CCCCC2)[C@H](CO)N3)c1
-4.8	1	0	2.4	CCC(=O)N[C@H]1C=C[C@@H](CC(=O)NCC2CC2)O[C@H]1CO
-2.8	1	-2	1.2	Cc1ccc(S(=O)(=O)Nc2ccc3c(c2)C(=O)N([C@H](C)CO)C[C@H](C)[C@H](CN(C)C(=O)CCC(F)(F)F)OCCCC[C@@H](C)O3)cc1
-2.4	2	3	-0.9	O=C(C[C@@H]1C=C[C@@H](NC(=O)C2CCOCC2)[C@@H](CO)O1)Nc1ccccc1
-1.2	-2	1	-1.3	C/C=C/c1ccc([C@H]2[C@@H](CO)N(C(=O)C3CCC3)[C@@H]2CN(CC)C(=O)CC)cc1
-5.1	1	4	-1.3	CN(C)CC(=O)N[C@@H]1C=C[C@H](CC(=O)O)O[C@H]1CO
-4.4	-1	3	-3.2	C[C@@H]1CN([C@H](C)CO)C(=O)c2cc(NC(=O)Nc3ccc(C(F)(F)F)cc3)ccc2O[C@@H](C)CCCCO[C@@H]1CN(C)C(=O)Cc1ccccc1
-5.0	0	2	2.2	CCCC(=O)Nc1ccc2c(c1)OC[C@H](C)N(C(=O)CC)C[C@H](C)[C@@H](OC)CN(C)C2=O
-3.5	1	-13	4.0	COc1ccc(-c2ccc([C@@H]3[C@H]4CN(C(=O)C5CCC5)CC(=O)N4[C@H]3CO)cc2)cc1
-3.4	1	-1	-2.9	O=C(O)C[C@@H]1CC[C@@H](NC(=O)CCN2CCCCC2)[C@H](CO)O1
-1.9	3	4	-1.0	Cc1noc(C)c1NC(=O)Nc1ccc2c(c1)C(=O)N([C@@H](C)CO)C[C@@H](C)[C@H](CN(C)S(C)(=O)=O)OCCCC[C@@H](C)O2
-0.6	1	2	4.0	C/C=C/c1ccc([C@H]2[C@@H](CO)N[C@@H]2CNC(=O)C2CCCCC2)cc1
1.2	3	7	-0.5	C[C@@H]1CN([C@@H](C)CO)C(=O)c2cc(NC(=O)Nc3ccc(F)cc3)ccc2O[C@@H](C)CCCCO[C@@H]1CN(C)C(=O)CCCN(C)C
-0.1	6	-18	20	COc1ccc(C#Cc2ccc([C@H]3[C@@H](CO)N4C(=O)CN(C(=O)c5ccccc5)C[C@@H]34)cc2)cc1
-2.6	-1	11	0.3	O=C(NC1CCCC1)N1CC(=O)N2[C@@H](CO)[C@H](c3ccc(-c4cccnc4)cc3)[C@@H]2C1
-4.9	2	0	-0.7	CCS(=O)(=O)N1CC2(CN(CC3CCOCC3)[C@H](CO)c3c2c2ccc(OC)cc2n3C)C1
-1.2	-4	-10	-2.0	Cc1ccc(-c2ccc([C@H]3[C@@H](CO)N4C(=O)CN(C(=O)c5ccncc5)C[C@@H]34)cc2)cc1
0.3	-1	-6	-1.5	O=C(c1cccc(F)c1)N1CC2(C1)[C@@H](c1ccccc1)[C@H](CO)N2C(=O)C1CCC1
-0.5	-2	13	1.5	COc1ccc(NC(=O)N2CC(=O)N3[C@H](CO)[C@H](c4ccc(Br)cc4)[C@@H]3C2)cc1
0.3	4	1	27	Cc1ccccc1S(=O)(=O)N1[C@@H](C#N)[C@H](c2ccc(C#CC3CCCC3)cc2)[C@@H]1CO
-3.2	1	8	2.8	CCCNC(=O)C[C@H]1C[C@H]2c3cc(N(C)C)ccc3O[C@H]2[C@H](CO)O1
-0.9	2	-1	0.2	CO[C@H]1CN(C)C(=O)c2cc(NC(=O)NC(C)C)ccc2OC[C@H](C)N(C(=O)CN(C)C)C[C@@H]1C
5.5	-36	-66	7.3	O=C(Nc1cccc(F)c1)N1CC(=O)N2[C@H](C1)[C@@H](c1ccc(-c3ccccc3F)cc1)[C@@H]2CO
-1.7	2	-1	1.0	O=C(C[C@@H]1CC[C@H](NC(=O)C2CCOCC2)[C@@H](CO)O1)Nc1ccccc1
-2.8	-5	-7	3.9	O=C(CC1CC1)NC[C@H]1N[C@H](CO)[C@@H]1c1ccc(-c2ccc(F)cc2)cc1
-0.1	2	-39	36	O=C(Nc1ccc(F)cc1)N1CC(=O)N2[C@H](CO)[C@@H](c3ccc(-c4ccccc4)cc3)[C@H]2C1

# Quoted from the listing for reference:
MLL AF4-AF9 inh	Ecoli rRNA inh	Ecoli rRNA inh OD600	Ecoli rRNA inh RFP	Molecule
-4.8	1	0	2.4	CCC(=O)N[C@H]1C=C[C@@H](CC(=O)NCC2CC2)O[C@H]1CO
-2.8	1	-2	1.2	Cc1ccc(S(=O)(=O)Nc2ccc3c(c2)C(=O)N([C@H](C)CO)C[C@H](C)[C@H](CN(C)C(=O)CCC(F)(F)F)OCCCC[C@@H](C)O3)cc1
-2.4	2	3	-0.9	O=C(C[C@@H]1C=C[C@@H](NC(=O)C2CCOCC2)[C@@H](CO)O1)Nc1ccccc1
-1.2	-2	1	-1.3	C/C=C/c1ccc([C@H]2[C@@H](CO)N(C(=O)C3CCC3)[C@@H]2CN(CC)C(=O)CC)cc1
-5.1	1	4	-1.3	CN(C)CC(=O)N[C@@H]1C=C[C@H](CC(=O)O)O[C@H]1CO
-4.4	-1	3	-3.2	C[C@@H]1CN([C@H](C)CO)C(=O)c2cc(NC(=O)Nc3ccc(C(F)(F)F)cc3)ccc2O[C@@H](C)CCCCO[C@@H]1CN(C)C(=O)Cc1ccccc1
-5.0	0	2	2.2	CCCC(=O)Nc1ccc2c(c1)OC[C@H](C)N(C(=O)CC)C[C@H](C)[C@@H](OC)CN(C)C2=O

# The listing continues.
MLL AF4-AF9 inh	Ecoli rRNA inh	Ecoli rRNA inh OD600	Ecoli rRNA inh RFP	Molecule
-8.0&0.4	3&2	8&5	-1.9&0.4	O=C(c1ccc2c(c1)OCO2)N1C[C@@H]2N[C@H](C1)C2c1ccc(-c2cccnc2)cc1 (some centres undefined)
-1.0	-1	7	-3.0	O=C(C[C@@H]1CC[C@@H]2[C@H](COC[C@@H](O)CN2Cc2nccs2)O1)NCc1ccccc1
2.5	-3	-7	4.0	CC(C)CC#Cc1ccc2c(c1)O[C@H](CN(C)C(=O)Cc1ccncc1)[C@@H](C)CN([C@@H](C)CO)S2(=O)=O
-5.5&0.1	3&-19	13&-38	-0.6&-2.8	O=S(=O)(c1ccc(F)cc1)N1C[C@@H]2N[C@H](C1)C2c1ccc(-c2ccc(F)cc2)cc1 (some centres undefined)
-3.8	2	1	-4.9	CC=Cc1ccc2n(c1=O)C[C@@H]1[C@@H](CO)[C@H](C(=O)NC3CCCC3)N(C(=O)C3CCC3)[C@H]21 (mixture of isomers)
-4.2	0	0	-0.3	O=C(C[C@@H]1C=C[C@H](NC(=O)CCN2CCCCC2)[C@@H](CO)O1)Nc1ccccc1
-8.5	3	4	-1.3	Cc1noc(C)c1NC(=O)N(C)C[C@@H]1OCCCC[C@H](C)Oc2ccc(NC(=O)NC3CCCCC3)cc2C(=O)N([C@@H](C)CO)C[C@@H]1C
-2.1	1	6	-1.8	O=C([C@H]1[C@H](CO)[C@H]2Cn3c(ccc(C4=CCCCC4)c3=O)[C@H]2N1Cc1nccs1)N1CCOCC1
0.9	2	-3	-3.1	COc1ccc2c3c(n(C)c2c1)[C@H](CO)N(CC1CC1)CC31CCN(C(=O)c2cccnc2)CC1
-0.4	2	-4	-9.2	O=C(c1cccnc1)N1CC[C@@H]2[C@@H](CO)Nc3ccc(C#Cc4cccnc4)cc3[C@@H]21
1.1&-1.1	-57&-2	-83&-10	-13&0.8	O=S(=O)(c1cccc(F)c1)N1[C@@H]2CNC[C@H]1C2c1ccc(-c2ccc(F)cc2)cc1 (some centres undefined)
-2.8	4	15	-0.2	CN1C(=O)c2cc(NC(=O)Nc3ccccc3F)ccc2OC[C@H]2O[C@@H](CC(=O)NCCc3ccncc3)CC[C@@H]21
-2.5	2	10	-2.4	O=C(C[C@@H]1C[C@@H]2c3cc(NC(=O)C4CCC4)ccc3O[C@@H]2[C@@H](CO)O1)NCc1ccccc1F
2.1	4	3	-0.8	CCCNC(=O)Nc1ccc2c(c1)OC[C@H](C)N(C(C)=O)C[C@H](C)[C@@H](OC)CN(C)C2=O
1.9	-38	-65	5.0	CCCNC(=O)N1CC(=O)N2[C@H](CO)[C@H](c3ccc(C#CCC4CCCC4)cc3)[C@H]2C1
2.3	0	1	-1.1	O=C1CNC[C@@H]2[C@H](c3ccc(C4=CCCCC4)cc3)[C@H](CO)N12
-1.4	-1	-1	-1.5	CCCNC(=O)[C@H]1[C@H](CO)[C@H]2Cn3c(ccc(-c4cccc(OC)c4)c3=O)[C@H]2N1C
-1.7	-1	0	0.6	CO[C@@H]1CN(C)C(=O)c2ccc(NS(=O)(=O)CC(F)(F)F)cc2OC[C@@H](C)N(C(=O)c2ccc3c(c2)OCO3)C[C@H]1C
2.7	-5	-16	2.5	CN1c2ccc(Br)cc2[C@@H]2[C@@H](CCN2C(=O)C2CCC2)[C@@H]1CO
0.1	3	2	-2.3	CN(C)CC#Cc1ccc([C@H]2[C@@H](CO)N3C(=O)CN(C(=O)c4ccccc4)C[C@@H]23)cc1

# Assay outcomes: PubChem BioAssay, Broad Institute

# This is a subset; the hit share may differ from the screen's.
